Screening results from PubChem BioAssay.
EPAC1 agonist: Validation qHTS for agonist of cAMP-regulated guanine nucleotide exchange factor 3 (EPAC1) | Rap guanine nucleotide exchange factor 3 (Homo sapiens), O95398 | EPAC1 Rap1b BODIPY-GDP exchange, fluorescence | Potency, µM, for the others: max response, positive = active, hits mostly activators | hit rate 1% among 16,000 | AID 1645883, 2021; active = well fitted activation curve with a large enough effect; inconclusive = small, poorly fitted or top-dose-only effect; inactive = no such curve, though single readings can be large or run the other way;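 also: nearly all actives have a fitted effect of over 70% in size; series mostly up to about 76 or 150 µM; scaled to a cAMP control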
Target sequence (O95398 whole entry, looked up): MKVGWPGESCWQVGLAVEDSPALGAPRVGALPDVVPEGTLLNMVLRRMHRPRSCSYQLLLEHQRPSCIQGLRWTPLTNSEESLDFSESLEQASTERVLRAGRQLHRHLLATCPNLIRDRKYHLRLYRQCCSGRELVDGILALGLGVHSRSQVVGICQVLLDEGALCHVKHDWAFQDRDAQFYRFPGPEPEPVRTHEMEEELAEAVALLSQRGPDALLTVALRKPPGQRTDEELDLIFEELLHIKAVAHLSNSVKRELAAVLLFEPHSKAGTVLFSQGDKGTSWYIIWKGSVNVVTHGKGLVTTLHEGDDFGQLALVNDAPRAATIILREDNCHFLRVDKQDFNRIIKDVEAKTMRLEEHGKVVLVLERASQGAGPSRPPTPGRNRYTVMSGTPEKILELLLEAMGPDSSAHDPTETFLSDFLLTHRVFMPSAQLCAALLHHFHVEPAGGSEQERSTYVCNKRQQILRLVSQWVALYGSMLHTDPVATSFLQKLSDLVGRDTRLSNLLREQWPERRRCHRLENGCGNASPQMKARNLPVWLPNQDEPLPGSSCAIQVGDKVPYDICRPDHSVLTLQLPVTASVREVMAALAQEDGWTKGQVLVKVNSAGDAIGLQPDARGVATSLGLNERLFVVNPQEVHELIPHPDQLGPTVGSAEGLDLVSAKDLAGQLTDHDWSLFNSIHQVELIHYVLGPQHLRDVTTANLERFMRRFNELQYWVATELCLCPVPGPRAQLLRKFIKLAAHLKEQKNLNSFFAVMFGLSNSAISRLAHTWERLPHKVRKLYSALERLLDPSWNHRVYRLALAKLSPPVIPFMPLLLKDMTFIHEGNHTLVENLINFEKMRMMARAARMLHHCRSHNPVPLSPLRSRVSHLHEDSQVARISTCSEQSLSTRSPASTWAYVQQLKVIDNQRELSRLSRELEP
Starred values were filed as active, the others as inactive; u = inconclusive; & = joins results of further samples; [ ] = dose if it differs, or a comment. % is scaled to controls: 0 for no effect and ±100 for the full control effect; potency is read from the fitted curve at half-maximal effect.

SMILES	EPAC1 agonist
C=C1CCC(OC(C)=O)/C(C)=C/CC2[C@H]1CC2(C)C (stereo partly specified)	-16.6%
CC(=O)O[C@](C)(CCC=C(C)C)C1CC=C(C)CC1 (stereo partly specified)	u
O=C1[C@H](Cc2ccccc2)NC/C=C\C[C@H](c2ccco2)N1Cc1ccccc1	13.9%
CN1CCc2cccc3c2C1Cc1ccc(O)c(O)c1-3 (stereo unspecified)	-11.4%&27.1%
Cn1c2ccccc2c(=O)c2ccc(F)cc21	26.0%
CC(C)(COP(=O)(O)OP(=O)(O)OC[C@H]1O[C@@H](n2cnc3c(N)ncnc32)[C@H](O)[C@@H]1OP(=O)(O)O)C(O)C(=O)NCCC(=O)NCCS (stereo partly specified)	-5.3%
COc1ccc2c(c1)c(CC(=O)N1CCOCC1)c(C)n2C(=O)c1ccc(Cl)cc1	-11.4%&-9.9%
O=C(c1ccco1)N(Cc1cc2cc3c(cc2nc1N1CCOCC1)CCC3)CC1CCCO1 (stereo unspecified)	5.4%
CCCCCCCCCCCCC[N+](C)(C)Cc1ccccc1	-16.9%
C=C[C@H](N)CCC(=O)O	-6.7%
N#Cc1cccc(-c2nc(NCc3cccnc3)c3ccccc3n2)c1	-69.2%[inhibitor]
CCOC(=O)C[C@H]1c2ccc(C(F)(F)F)cc2S(=O)(=O)N1C1CCCC1	-31.9%[inhibitor]
CN(C)Cc1ccccc1-c1nc(N(C)Cc2ccco2)c2ccccc2n1	14.3%
CCCCCCCCC#CCC#CCC#CCCCC(=O)O	-12.7%
COc1ccc(CNc2ncnc3ccc(-c4cccc(C#N)c4)cc23)c(OC)c1	1.4%

4 entries from above, field by field:
Structure: CC(C)(COP(=O)(O)OP(=O)(O)OC[C@H]1O[C@@H](n2cnc3c(N)ncnc32)[C@H](O)[C@@H]1OP(=O)(O)O)C(O)C(=O)NCCC(=O)NCCS (stereo partly specified)
  EPAC1 agonist: -5.3%

Structure: COc1ccc2c(c1)c(CC(=O)N1CCOCC1)c(C)n2C(=O)c1ccc(Cl)cc1
  EPAC1 agonist: -11.4%&-9.9%

Structure: O=C(c1ccco1)N(Cc1cc2cc3c(cc2nc1N1CCOCC1)CCC3)CC1CCCO1 (stereo unspecified)
  EPAC1 agonist: 5.4%

Structure: CCCCCCCCCCCCC[N+](C)(C)Cc1ccccc1
  EPAC1 agonist: -16.9%

The list continues:
SMILES	EPAC1 agonist
CN=c1nc(-c2ccccc2)n(-c2ccccc2)s1	6.8%
CC(=C\c1ccccc1)/C=C1/SC(=S)N(CC(=O)O)C1=O	-30.6%[inhibitor]
CN(C)Cc1ccccc1-c1nccc(N(C)C)n1	-13.5%
COc1ccccc1CNc1nc(-c2ccc(C(=O)N(C)C)cc2)nc2ccccc12	23.7%
N[C@@H](CCCC(=O)O)C(=O)O	-3.8%
CS(=O)(=O)N1CCC2(CC1)CN(c1ccccn1)C2	-44.8%[inhibitor]
O=C(c1csnn1)N1CCC2(CCCN(c3ncccn3)C2)CC1	-0.2%
CCCCCCCCCCCCCCCC(=O)O[C@H](CC(=O)O)C[N+](C)(C)C	-61.9%[inhibitor]
C=C1CC[C@H](O)CC1=C/C=C1\CCC[C@]2(C)[C@@H]([C@H](C)/C=C/[C@H](C)C(C)C)CC[C@@H]12	-126.7%[inhibitor]
COc1ccc(CN2C[C@H](Cc3ccccc3)[C@@H](CC(=O)Nc3ccccc3)C2=O)cc1	8.0%
COCc1c(C(=O)NC2CCCC2)cnn1-c1nccc(-c2ccco2)n1	-7.1%
CC(C)CCC[C@@H](C)[C@H]1CC[C@H]2[C@@H]3CC[C@@H]4C[C@H](O)CC[C@]4(C)[C@H]3CC[C@]12C	-15.8%
CCN1\C(=C/C=C/C=C/c2sc3ccccc3[n+]2CC)Sc2ccccc21	-135.9%&-43.3%[inhibitor]
COc1ccc(C(=O)NCc2nnc(SC)n2-c2ccccc2C)c(OC)c1OC	-0.5%
COc1ccccc1N1CCN(c2nc(CNC(=O)c3ccccc3F)nc3ccccc23)CC1	6.7%
CCCS(=O)(=O)NCc1c(C)ncc2c1CCN(C(=O)c1cccc(C(F)(F)F)c1)C2	-7.7%
COc1ccc2[nH]cc(CCNc3nc(-c4ccc(N(C)C)cc4)nc4ccccc34)c2c1	u
Cc1[nH]c2c(C(=O)NCC3Cc4cccc(-c5cccnc5)c4O3)cccc2c1C (stereo unspecified)	19.3%
NC(CSCC(=O)O)C(=O)O (stereo unspecified)	u
O=C(O)C(S)C(S)C(=O)O (stereo unspecified)	13.9%
COC1=C(OC)C(=O)c2ccccc2C1=O	1.8%
Cc1ccsc1C(=O)N(Cc1cc2ccc(F)cc2nc1N1CCC(O)CC1)CC1CCCO1 (stereo unspecified)	5.8%
C[C@H](NC(=O)/C(C#N)=C/c1ccc(O)c(O)c1)c1ccccc1	5.7%&-16.9%
O=C(c1ccncc1)N1CCC2(CC1)CN(Cc1cc(C(F)(F)F)cc(C(F)(F)F)c1)C2	-52.2%[inhibitor]
COC(=O)c1c(OCc2cccnc2)cc(=O)n2c1CCN(Cc1cc3c(cc1Cl)OCO3)CC2	3.0%
CCCCC	-8.1%
Cc1cc(C(=O)NCc2nc(-c3ccccc3NC(=O)C3CCCO3)oc2C)nc(C)n1 (stereo unspecified)	-9.1%
CC(C)NC(=O)N1CCCC2(CCN(C(=O)c3cccn3C)CC2)C1	-48.1%[inhibitor]
O=C(CCCN1CCC(O)(c2cccc(C(F)(F)F)c2)CC1)c1ccc(F)cc1	0.0%&-5.0%
FC(F)(F)c1ccccc1-c1cc(NCCN2CCOCC2)ncn1	24.6%
CCN1CCCC1CNC(=O)c1cc(S(=O)(=O)CC)c(N)cc1OC (stereo unspecified)	-8.8%&8.4%
C[C@@H](CN(C)C)CN1c2ccccc2Sc2ccccc21	-20.2%
CCCCS(=N)(=O)CC[C@H](N)C(=O)O (stereo partly specified)	0.3%
CC1(C)OC2C(CO)OC(n3cnc4c(=O)[nH]c(N)nc43)C2O1 (stereo unspecified)	16.6%
COc1ccc(Oc2ncc3nc(-c4cccc(C#N)c4)c(=O)n(C)c3n2)cc1	-25.8%
COC(=O)c1ccccc1C(=O)NCc1nc(N2CCCC2)c2cccc(C)c2n1	-26.9%
COc1ncc2nc(-c3ccc(F)cc3)c(=O)n(Cc3cccs3)c2n1	-10.2%
COc1ccc(CNC(=O)[C@@H]2CC=C[C@@H]3CCN(Cc4ccc(OC)c(OC)c4)C(=O)[C@@H]32)cc1	16.9%
COc1ccccc1CN1CCOc2ccc(C(C)(O)CN(C)C)cc2C1 (stereo unspecified)	-11.7%
COc1ccc(OC)c(-c2cc(Cl)c3c(c2)CC(CNC(=O)c2coc4c2C(=O)CCC4)O3)c1 (stereo unspecified)	10.1%
CC(C(=O)O)c1ccc2c(c1)[nH]c1ccc(Cl)cc12 (stereo unspecified)	-21.9%
COc1ccc(SC[C@H](Cc2ccccc2)N2CC[C@@H](O)CCC2=O)cc1	8.1%
Cc1cccc(/C=C\c2ccccc2)n1	-14.1%
NC(=O)C1CCCN(Cc2ccc3c(c2)CN(Cc2ccccc2)CCO3)C1 (stereo unspecified)	5.3%
CC(=O)OC1CCC2(C)C(=CCC3C2CCC2(C)C3C[C@@H]3O[C@]32C(C)=O)C1 (stereo partly specified)	-7.7%
Nc1ncnc2c1ncn2[C@@H]1O[C@H](CO)[C@@H](O)[C@H]1O	5.8%&-0.7%&-6.4%
Cc1cc(/C=C/c2ccccc2)nc2ccccc12	u
Cc1c(OCC(F)(F)F)ccnc1CS(=O)c1nc2ccccc2[nH]1 (stereo unspecified)	-1.8%&-4.8%&6.0%
CC(=O)OC[C@H]1O[C@@H](O[C@H]2[C@H](O)[C@@H](OC(=O)c3ccccc3C(=O)O)[C@H](O)O[C@@H]2COC(C)=O)[C@H](O)[C@@H](OC(=O)c2ccccc2C(=O)O)[C@@H]1O	-29.6%
Cc1cccc(CNc2cc(-c3ccoc3)ncn2)c1	-22.0%
Cc1ccc(S(=O)(=O)NC(=O)NN2CC3CCCC3C2)cc1 (stereo unspecified)	-7.0%&2.7%&1.9%
COC(=O)C1CCN(Cc2ccc3c(c2)CN(C(=O)C2CCCN(c4ccccn4)C2)CCO3)CC1 (stereo unspecified)	-21.2%
CC(=O)[C@]1(O)Cc2c(O)c3c(c(O)c2[C@@H](O[C@H]2C[C@H](N)[C@H](O)[C@H](C)O2)C1)C(=O)c1c(O)cccc1C3=O	112µM*
CC1=C(CCC(=O)O)c2cc3nc(cc4[nH]c(cc5[nH]c(cc1n2)c(C)c5C(C)O)c(C)c4C(C)O)C(C)=C3CCC(=O)O (stereo unspecified)	u
OC[C@H]1O[C@@H](n2cnc3cncnc32)[C@H](O)[C@@H]1O	-8.3%&-4.3%
NCCCCN=C(N)N	3.1%&-4.4%&-9.1%&-26.5%&8.9%
O=C(c1ccc(F)cc1)C1CCN(CCCCc2ccccc2)CC1	-5.4%
Cn1c(=O)cnc2cnc(Nc3ccccc3)nc21	-21.3%
CC(=O)O[C@H]1CC[C@@]2(C)C(=CC[C@@H]3[C@@H]2CC[C@]2(C)C(c4cccnc4)=CC[C@@H]32)C1	-15.4%
CN1CCN(c2ncncc2-c2ccccc2Cl)CC1	-16.6%

The results go on.
SMILES	EPAC1 agonist
C/C(=C\C(=O)OCCCCCCCCC(=O)O)C[C@@H]1OC[C@H](C[C@@H]2O[C@H]2[C@@H](C)[C@H](C)O)[C@@H](O)[C@H]1O	-34.9%[inhibitor]
COc1ccc(NC(=O)C2CC23CCN(Cc2cccc4ncccc24)CC3)cc1Cl (stereo unspecified)	-21.4%
COc1c(C2=CC(=O)N(C)C2=O)c2c(n1C)C(=O)c1ccccc1C2=O	-3.7%
O=C(c1n[nH]c2c1CCCC2)N1CCOc2ccc(C(O)C3CCCCC3)cc2C1 (stereo unspecified)	-3.3%
CCOC(=O)C(C#N)=C(c1ccccc1)c1ccccc1	27.9%
COC(=O)c1cccc(-c2cc(Cl)c3c(c2)CC(CNC(=O)c2cccnc2)O3)c1 (stereo unspecified)	8.8%
CCOC(=O)[C@H](CCc1ccccc1)N[C@@H](C)C(=O)N1[C@@H](C(=O)O)C[C@@H]2CCC[C@@H]21	44.7µM*
c1csc(CNc2ncnc3ccc(-c4ccc5c(c4)OCO5)cc23)c1	-13.3%
Cc1cccc(CNc2ccnc(-c3cccnc3)n2)c1	-53.6%[inhibitor]
CC1=CC[C@@]2(CO)COC(c3ccccc3O)C1C2 (stereo partly specified)	-0.1%
CCCNC(C)C(=O)Nc1ccccc1C (stereo unspecified)	0.7%&2.4%&-5.2%
COc1ccccc1CNc1ncncc1-c1ccccc1CN(C)C	19.5%
CC[C@@H]1[C@H]2CCCC(=O)N3CC[C@@H](C[C@@H]1OC(=O)Nc1ccccc1)[C@@H]23	-40.3%[inhibitor]
CCN(CC)CCOC(=O)c1cc(Cl)c(N)cc1OC	-6.0%&-9.5%
O=C(Nc1ccccc1)N1CCCC2(CCNCC2)C1	-19.9%
COc1cccc(CN2C(=O)NC(C)(C3CCN(Cc4ccc(C)o4)CC3)C2=O)c1OC (stereo unspecified)	-19.1%
CN(C)CCn1nnnc1SCC1=C(C(=O)O)N2C(=O)[C@@H](NC(=O)Cc3csc(N)n3)[C@H]2SC1	-27.4%
CC(C)C1=CC2=CC[C@@H]3[C@](C)(CO)CCC[C@]3(C)C2CC1 (stereo partly specified)	-8.6%
CO[C@H]1[C@H](NC(=O)c2cccs2)c2ccccc2C12CCN(Cc1cccn1-c1cccnc1)CC2	7.1%
CC(=O)/C(C)=N\O	4.4%
CCCN1CCC(=O)N([C@H](CO)Cc2ccccc2)CC1	21.0%
Cc1[nH]cnc1C[C@H]1CCc2c(C)c3ccccc3n2C1=O	-107.7%[inhibitor]
COc1ccc(C(=O)N2CCC3(CCN(C)CC3)CC2)cc1	12.9%
CN1CCN(c2ncc3nc(CCc4ccccc4)c(=O)n(C)c3n2)CC1	-10.2%
Cc1nc2cnc(Oc3ccccc3)nc2n(-c2ccccc2)c1=O	-45.2%[inhibitor]
C=C[C@H](CC(C)C)N(Cc1ccccc1)S(=O)(=O)N(Cc1ccccc1)[C@@H](C=C)CC(C)C	9.9%
Cc1cccc(/C=C/c2ccccc2)n1	-11.8%&-2.9%
Cc1nc2cncnc2n(Cc2ccc(F)cc2)c1=O	-21.1%
COC(=O)/C=C/c1cc(F)ccc1S(=O)(=O)NC(C)(C)C	23.9%
Cc1c(C(=O)N(C)Cc2cscn2)sc2ncnc(NC[C@H]3CCc4ccccc4O3)c12	0.8%

Nothing new here: an excerpt of the list.
SMILES	EPAC1 agonist
COC(=O)/C=C/c1cc(F)ccc1S(=O)(=O)NC(C)(C)C	23.9%
Cc1c(C(=O)N(C)Cc2cscn2)sc2ncnc(NC[C@H]3CCc4ccccc4O3)c12	0.8%

(continued)
SMILES	EPAC1 agonist
COCC(=O)N1CCC2(CC1)CN(Cc1ccccc1OC)C2	-5.3%
COc1cc(=O)n2c(c1C(=O)NC(C)c1ccco1)CCN(Cc1ccccc1Cl)CC2 (stereo unspecified)	-9.3%
O=Nc1ccc(/C=C/c2ccnc3ccccc23)cc1	21.7%
O=C(CCc1nc2ccccc2s1)N1CCOc2ccc(CN3CCc4sccc4C3)cc2C1	1.6%
COc1ccc(C(=O)N2CCC3(CC2)CN(Cc2ccc(C#N)cc2)C3)cc1	19.1%
CC(C)=CCc1c(O)cc2oc(C)cc(=O)c2c1O	-26.0%
CO[C@H]1[C@H](NC(=O)C(C)C)c2ccccc2C12CCN(Cc1c(C)nn(C)c1Cl)CC2	17.6%
COc1cccc2ccc(CN3CCC4(CC3)c3ccccc3[C@@H](NC(=O)c3ccccc3)[C@@H]4O)nc12	-0.9%
O=C1[C@H](Cc2ccccc2)NCCCC[C@@H](c2ccco2)N1Cc1ccccc1	-14.1%
Cn1c(=O)c(-c2cc(F)cc(F)c2)nc2cnc(Nc3ccccc3)nc21	-13.8%
COC(=O)N1CCC2(CCN(C(=O)Nc3cccc(F)c3)CC2)CC1	-100.5%[inhibitor]
COc1ccc2[nH]cc(CCNc3ccnc(-c4ccc5c(c4)OCO5)n3)c2c1	u

An excerpt. The share of hits here may be higher or lower than overall.
